UUG fidelity: modulators of start codon recognition fidelity in yeast; AID 602363; S. cerevisiae UUG-firefly luciferase reporter, luminescence/redox ratio; hit rate 0.13% among 350,000; activity score, % at 18.7 µM;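 active = replicate mean at a twofold rise or more, about +100% in these data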;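 also: firefly luciferase made from a UUG start codon reports start codon fidelity; reporter light over untreated wells divided by growth signal over untreated wells; some hits fall short of that in this replicate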
MT1-MMP act inh: blocks activation of human MT1-MMP. P50281. hit rate 0.061% among 360,000. HT1080 RFP-PRO-GFP cells, GFP/RFP ratio fluorescence, overnight; percent of plate control window, DMSO zero. GFP/RFP ratio change, % at 20 µM;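 active = GFP/RFP ratio change of at least 30% with cell ATP level not reduced by more than half and red fluorescence within 50% of control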; also: strong numbers were not always called active
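system = RFP-PRO-GFP reporter HT1080 cells | dosing = 20 µM single dose, 1% DMSO | timing = overnight cell settling, then overnight compound exposure, 37 °C, 5% CO2 | read-out basis = GFP/RFP fluorescence ratio | controls = DMSO and RFP-L50D-GFP cell wells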
CSC inhib: blocks cancer stem cells. AID 2717. cancer stem cell-like cells viability, luminescence. hit rate 1.1% among 300,000. inhibition, % at 7.5 µM;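 active = mean at 75% or more and at least half the replicates too; tested in HMLE shEcad cells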;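 also: 0% = median of negative and 100% = median of positive control wells; the first replicate is given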
eIF4H inh: inhibitors of RNA binding by human eIF4H; hit rate 0.94% among 290,000; inhibition, % at 35 µM; AID 2012; eIF4H fluorescence polarization binding assay;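 active = 50% or more with normal probe brightness, or confirmed in later tests; about a fifth of its hits are not listed in these tables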;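 also: calls also rest on retests at 20 µM and on dose response follow-up; 0% = protein and probe with vehicle and 100% = probe without protein; strong numbers were not always called active; many hits fall short of the cut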
Rce1 inh: yeast Ras-converting enzyme inhibition. hit rate 0.27% among 290,000. yeast membranes, quenched prenylated peptide cleavage fluorescence. calls only;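 active = fall in fluorescence gain of 50% or more versus controls, with final raw signal at or below 3038400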;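 also: plate controls were neutral control wells for no effect and wells lacking membranes for full effect; tested at 10 µM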
Target sequence (Q03530 whole entry, looked up): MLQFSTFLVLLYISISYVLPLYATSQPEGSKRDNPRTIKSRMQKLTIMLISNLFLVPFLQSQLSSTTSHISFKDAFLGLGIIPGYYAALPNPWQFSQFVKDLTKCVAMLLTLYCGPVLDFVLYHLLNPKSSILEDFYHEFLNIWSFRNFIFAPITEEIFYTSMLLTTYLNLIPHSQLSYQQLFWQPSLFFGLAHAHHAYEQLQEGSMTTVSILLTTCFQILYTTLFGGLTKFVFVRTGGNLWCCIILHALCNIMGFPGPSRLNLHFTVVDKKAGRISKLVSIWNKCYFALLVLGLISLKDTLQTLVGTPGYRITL
PABP polyA inh: PABP-poly(A) binding inhibition. inhibition, % at 35 µM. PABP-poly(A) RNA binding, fluorescence polarization. hit rate 1% among 290,000. AID 2014;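 active = 50% or more with normal probe brightness, or confirmed in later tests; about a fifth of its hits are not listed in these tables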;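 also: calls also rest on retests at 20 µM and on dose response follow-up; controls were probe without protein and protein plus probe with vehicle; some compounds called inactive have numbers as strong as hits; many hits fall short of the cut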
Env fusion inh: HIV envelope-mediated fusion inhibition; hit rate 1.1% among 360,000; inhibition, % at 12.3 µM; HeLa-JRFL Env/CEM21 cell fusion, luciferase;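 active = mean replicate inhibition score of at least 50 and every replicate individually at or above 50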;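 also: 0% = plate neutral controls and 100% = maraviroc near 300 nM; one replicate is shown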
eIF4H inh retest: second read-out of eIF4H inh, no call of its own (marks repeat the call); inhibition, %; compound at 20 µM; confirmation average;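 mean of two retest wells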
PABP polyA inh retest: second read-out of PABP polyA inh, no call of its own (marks repeat the call); inhibition, %; compound at 20 µM; confirmation repeats;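 mean of two retest wells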
MT1-MMP act inh RFP: recorded beside MT1-MMP act inh, whose call it bears; RFP signal change, %; measured here: RFP expression control read;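 0 = vehicle wells; hits needed this value within 50% of zero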
Starred values were filed as active, the others as inactive; i = inactive; . = not tested or not shown.

SMILES	UUG fidelity	MT1-MMP act inh	MT1-MMP act inh RFP	CSC inhib	eIF4H inh	Rce1 inh	PABP polyA inh	Env fusion inh	others
Cc1ccc(S(=O)(=O)N2CCC(=O)N(C(COC(=O)Nc3ccccc3)Cc3ccccc3)CC2)cc1 (stereo not given)	15	-5	-6	7	3	i	-2	-65
CC1(C)c2[nH]c3ccccc3c2C[C@@H]2C(=O)N(c3ccc(F)cc3F)C(=O)N21	-11	0	-2	32	.	i	.	-13
Nn1c(SCC(=O)NCc2ccc3c(c2)OCO3)nnc1C1CC1	5	-1	3	-20	-2	i	1	.
Cn1c(SCC(=O)N2CCOCC2)nc2c(c1=O)SCC2	-19	4	6	-5	-10	i	-2	0
Nc1c(S(=O)(=O)c2ccccc2)nnn1-c1ccccc1	-16	1	1	-4	-6	i	1	20
CC(O)(CS(=O)(=O)Cc1ccc(Cl)cc1)C(=O)Nc1cccc(C(F)(F)F)c1 (stereo not given)	-5	10	0	16	-8	i	-6	.
CCN(Cc1ccccc1)C(=O)CSc1ncn[nH]1	-7	2	3	-8	-2	i	6	10
Clc1ccc(CSc2nncn2-c2ccc3c(c2)OCCO3)cc1	-13	-3	-16	75	-14	i	-12	41
Cc1cn(C(C)C)c(=O)n(-c2ccccc2)c1=O	-13	0	2	.	.	.	.	-12
CCOC(=O)c1c(C)[nH]c(C)c1C=O	-22	-8	2	-11	-1	i	-1	-2
c1ccc2c(OCCCCN3CCCC3)cccc2c1	-16	3	5	3	13	i	24	1
CCOC(=O)c1cccc(NC(=O)CCc2ccccc2)c1	-9	3	1	3	-3	i	-3	14
CC(=O)C1CCC2C3CC=C4N(C)C(=O)CCC4(C)C3CCC12C (stereo not given)	-23	1	1	.	.	.	.	-13
COc1cccc(-c2n[nH]c(=S)n2Cc2ccco2)c1	-15	-1	0	5	4	i	8	-1
CC1=CC(=C(C#N)C#N)C=C(C)N1Cc1ccccc1	.	1	6	0	5	i	30	6
CCn1c(=O)c(C(=O)Nc2ccccc2)c(O)c2ccccc21	-5	.	.	-18	-6	i	1	2
O=C(NCCNC(=O)c1ccc([N+](=O)[O-])cc1)c1ccncc1	.	-3	1	-16	2	i	8	12
O=C(NC1CC2CCCC(C1)N2C(=S)NCCc1ccccc1)C1CC1 (stereo not given)	.	0	1	-9	1	i	-7	-1
Cc1ccccc1NC(=O)Cc1nc(COC(=O)COc2ccccc2C(C)C)cs1	-16	0	-1	5	.	.	.	-6
CC(C)(C)c1cc(NC(=O)Nc2ccc(Br)cc2Cl)no1	.	-4	-4	0	69	i	1	3	eIF4H inh retest=0;PABP polyA inh retest=8
Cc1ccc(C(=O)Nc2ncccc2S(=O)(=O)c2ccccc2)cc1	-7	5	3	-5	-3	i	-6	-28
Cc1nn(-c2ccccc2)c(Cl)c1C(=O)N(C)c1nc(-c2ccc(F)cc2)cs1	.	.	.	6	-2	i	1	.
Cc1ccc(CC2CC(=O)N(CC(=O)O)C2=O)cc1 (stereo not given)	-6	-2	-1	-4	7	i	-3	10
CCCC(=O)c1ccc(N2CCOCC2)c(F)c1	0	-1	-1	-4	1	i	8	.
COc1ccc(OC)c(N/C=C/C(=O)c2ccc(OC)c(OC)c2)c1	-10	-3	-5	3	-6	.	-4	-4
CCn1c(SCC(=O)Nc2ccc(N3CCOCC3)c(Cl)c2)nnc1-c1ccc(N)cc1	7	4	-5	12	0	i	1	3
COc1ccc(S(=O)(=O)N2CCOC23CCN(S(=O)(=O)c2ccccc2)CC3)cc1	-2	4	5	3	.	i	.	-6
NC(=O)C1CCN(C(=O)c2cc(S(=O)(=O)N3CCOCC3)c(Cl)cc2Cl)CC1	1	7	7	-13	2	i	25	9
O=C(O)CC/C(=N\NC(=O)c1ccc(F)cc1)c1ccc(Br)cc1	-17	2	5	-3	1	i	-28	-20
Cn1c(=O)[nH]c(=O)c2c1ncn2CCN1CCCCC1	-24	4	5	-14	-14	i	0	.
Cc1cc(S(=O)(=O)N2CCCC2)ccc1OCC(=O)Nc1ccc(C(N)=O)cc1	-5	2	1	-2	.	.	.	.
CCOc1ccc(N2C(=O)CC(NC3CCN(C(=O)c4cccc(Cl)c4)CC3)C2=O)cc1 (stereo not given)	-12	-2	1	-1	-4	i	2	-10
CC(OC(=O)c1cc2c(s1)CCCCC2)C(=O)NC(N)=O (stereo not given)	-21	3	-1	-5	-5	i	14	-9
CCc1cc2c(=O)c(-c3nc4ccccc4n3C)coc2c(CN2CCCC(C)C2)c1O (stereo not given)	-15	10	3	-1	-6	i	-2	-1
CCOC(=O)c1cccc(NC(=O)CCc2nc(-c3ccccc3F)no2)c1	-17	1	-5	-8	4	i	-7	.
CCCc1nc(C)c(-c2ccc(OC)c(OC)c2)c(=O)[nH]1	-13	5	9	-3	7	i	-1	.
COc1ccc(C(=O)NCC(=O)N2CCN(c3ccccc3)CC2)cc1	-11	0	-3	-8	4	i	3	-3
COc1cc(CNC(C)C)ccc1OCC(=O)Nc1cccc2ccccc12	-4	4	2	14	-3	i	8	2
Cc1ccc(NC(=O)CSc2nc(C)c(Cc3ccccc3)c(=O)[nH]2)cc1	.	3	-1	14	-14	i	-6	16
N#Cc1ccc(-c2nc3ccc(Cl)cn3c2Cc2ccsc2)cc1	-7	-5	1	.	.	.	.	-46
COc1ccccc1C(=O)N1CCN(Cc2c[nH]c3ccccc23)CC1	-6	-2	3	-10	2	i	16	13
COc1cc(-c2nnc(COC(=O)c3cccn3C)o2)cc(OC)c1OC	-2	3	1	19	10	i	10	-4
COC(=O)c1ccc(CN2C(=O)c3ccccc3S2(=O)=O)cc1	-11	0	3	-1	-4	i	-1	22
O=C(Nc1cccnc1)C1CC(c2ccc(Cl)c(Cl)c2)=NO1 (stereo not given)	12	5	0	-8	-6	i	-10	.
O=C(Nc1ccccc1)N(CCCN1CCOCC1)Cc1ccccc1F	7	-2	0	-6	-2	i	-2	.
COc1cccc(CCNC(=O)c2cccc(NC(=O)C3=C(C)OCCS3)c2)c1	-3	-4	4	-9	-2	i	2	-7
COc1ccc(/C=C/C(=O)Oc2ccc(/C=N/NC(=O)COc3c(C)cccc3C)cc2)cc1	-15	4	6	-13	-15	i	18	.
Nc1c(C(=O)Nc2nc3ccccc3s2)sc2nc(-c3cccs3)ccc12	-9	-148	-4	22	44	i	5	.
COc1cccc(C(=O)NCCS(=O)(=O)N2CCC3(CC2)OCCO3)c1	-5	0	1	-12	.	i	.	9
Cc1cc(C)c2[nH]c(=O)c(C(c3nnnn3Cc3ccc4c(c3)OCO4)N3CCCCC3)cc2c1 (stereo not given)	.	-6	-2	-13	-8	i	-9	.
O=[N+]([O-])c1ccc(Nc2ccccc2)nc1	.	2	2	47	37	i	-2	-17
Cc1ccccc1/C=C1\SC(=S)N(/N=C/c2cc([N+](=O)[O-])ccc2O)C1=O	-17	2	2	5	20	i	-8	-13
CCOC(=O)C1=C(C)NC(=O)NC1c1cccs1 (stereo not given)	.	-3	-2	4	4	i	-4	12
CC[C@]12c3[nH]c4cc(-c5ccco5)ccc4c3CCN1C(=O)[C@@H](CC(=O)NCCCOC)C[C@@H]2C(=O)N1CCN(C(=O)c2ccco2)CC1	20	-3	2	.	.	.	.	4
COc1ccc(OC)c2sc(N3CCN(c4ccccc4)CC3)nc12	-14	4	-7	15	.	i	.	1
COC(=O)CSC1=C(C#N)C(c2cccc(OC)c2)CC(=O)N1 (stereo not given)	-6	-2	-3	4	-6	i	-1	7
COc1ccc(C(C(=O)NCC2CCCO2)N(C(=O)CNC(=O)c2cccs2)c2ccccc2C)cc1OC (stereo not given)	3	-2	-1	2	-4	i	1	-6
Cc1cc2ncc(S(=O)(=O)c3ccccc3)c(N)n2n1	.	4	3	4	-3	i	-9	-5
O=C(CNC(=O)c1ccc(Br)o1)Nc1ccc(F)c(S(=O)(=O)N2CCOCC2)c1	-13	-1	-1	.	.	.	.	-109
O=C(Nc1ccccn1)c1cccc(S(=O)(=O)N2CCCCC2)c1	-16	5	2	-8	5	i	6	.

Reprinted from the part before: five compounds, followed by the next part.
SMILES	UUG fidelity	MT1-MMP act inh	MT1-MMP act inh RFP	CSC inhib	eIF4H inh	Rce1 inh	PABP polyA inh	Env fusion inh	others
COC(=O)CSC1=C(C#N)C(c2cccc(OC)c2)CC(=O)N1 (stereo not given)	-6	-2	-3	4	-6	i	-1	7
COc1ccc(C(C(=O)NCC2CCCO2)N(C(=O)CNC(=O)c2cccs2)c2ccccc2C)cc1OC (stereo not given)	3	-2	-1	2	-4	i	1	-6
Cc1cc2ncc(S(=O)(=O)c3ccccc3)c(N)n2n1	.	4	3	4	-3	i	-9	-5
O=C(CNC(=O)c1ccc(Br)o1)Nc1ccc(F)c(S(=O)(=O)N2CCOCC2)c1	-13	-1	-1	.	.	.	.	-109
O=C(Nc1ccccn1)c1cccc(S(=O)(=O)N2CCCCC2)c1	-16	5	2	-8	5	i	6	.
CC1CN(C(=S)c2cccc([N+](=O)[O-])c2)CC(C)O1 (stereo not given)	.	-2	2	-7	-1	i	-1	.
CCOC(=O)c1sc(NC(=O)CCCn2nc([N+](=O)[O-])c(Cl)c2C)c(C(=O)OCC)c1C	-3	2	-3	-2	-1	i	3	.
COc1ccc(OC)c(-c2nnc(SCC(=O)N3CCCc4ccccc43)o2)c1	0	-3	-3	-1	-13	i	-15	.
O=C1CSC(c2cn(-c3ccccc3)nc2-c2ccccc2)N1Cc1ccco1 (stereo not given)	-12	-4	-6	.	0	.	0	.
CCOC(=O)C1CCN(C(=O)Cn2nc(C)c3c(C)n(-c4ccccc4)nc3c2=O)CC1	-9	3	0	-8	-8	i	-2	-6
O=C1CC(Nc2cc(=O)[nH]c(=O)[nH]2)C(=O)N1c1ccccc1Cl (stereo not given)	-37	-2	3	8	-2	.	0	4
COc1ccc(N2CCN(C(=O)c3ccc4c(Cl)c5c(nc4c3)CCCC5)CC2)cc1	12	0	-1	24	-2	i	11	8
CCCCCCN1C[C@H](O)[C@@H](n2cc(-c3ccc(F)cc3)nn2)C[C@@H]1c1ccccc1	0	2	0	.	.	.	.	3
Cc1ccc(S(=O)(=O)N2CCN(C(=O)c3ccccc3)C2C(C)C)cc1 (stereo not given)	-14	3	7	3	6	i	-1	.
CCOC(=O)c1c(NC(=O)C2C3C=CC(C3)C2C(=O)O)sc2c1CCC(CC)C2 (stereo not given)	.	9	2	-28	3	i	0	.
COC(=O)c1sc2nc(SCc3ccccc3C)n(N)c(=O)c2c1C	.	6	0	3	3	i	-6	14
COc1ccccc1CC(O)CC1c2c(cc3c(c2OC)OCO3)CCN1C (stereo not given)	-9	-20	-4	.	.	.	.	8
O=c1[nH]c(C2CCN(S(=O)(=O)c3ccccc3C(F)(F)F)CC2)nc2c1nnn2Cc1cccc(F)c1	.	3	-3	10	4	i	1	11
CCOC(=O)c1ccc(-c2ccc3[nH]c4ccccc4c(=O)c3c2)cc1F	6	2	-4	0	-8	i	-7	-34
Cc1ccc(S(=O)(=O)N2CCC(C(=O)N3CCc4ccccc43)CC2)cc1C	4	2	-3	.	.	.	.	-13
CCOCCCNC(=O)C1CCN(S(=O)(=O)N2CCCCC2)CC1	-2	5	1	-12	-8	i	-2	-3
Cc1noc(C)c1NC(=O)N(C)C[C@@H]1Oc2ccc(NC(=O)Cc3cn(C)c4ccccc34)cc2CC(=O)N([C@H](C)CO)C[C@@H]1C	7	6	8	2	.	.	.	23
CCn1nc(NC(C)=O)c2cc3cccc(C)c3nc21	-14	-2	-1	-19	.	i	.	-24
CCOC(=O)N1CCN(C(=O)c2ccccc2NC(=O)c2ccccc2Cl)CC1	7	-2	0	-1	6	i	2	.

Bioassay records deposited in PubChem by several laboratories.
